BasE inh = BasE siderophore enzyme inhibitors, primary screen, biochemical, Acinetobacter baumannii ATCC 17978, fluorescence polarization; purified BasE, fluorescence polarization binding displacement; inhibition, % (concentration not given with the values); 0.1% of 84,000 active; AID 485350, 2010;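 active means both replicates above 25% with normal brightness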;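 further: 0% = negative plate control signal and 100% = positive plate control signal; stock transfer was 100 nL into about 30 µL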
LANA-nucl inh = inhibitors of KSHV LANA-nucleosome binding, primary screen, biochemical, fluorescence polarization, FITC-LANA1-23, chicken nucleosomes; FITC-LANA1-23 / chicken nucleosome fluorescence polarization; hits give low values; z-score (test concentration not listed); 0.3% of 51,000 active; AID 720717, 2013;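 active means both repeat wells score below -2 in polarization z-score versus plate sample wells, excluding overly bright wells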;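 further: 100 nL library stock added to about 30 µL; numbers are from one replicate; some results filed as inactive read as strong as hits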
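Material: Purified chicken nucleosomes with FITC-labelled LANA N-terminal peptide (1-23) | Reagent: 50 nM FITC-LANA1-23 probe | Medium: TEN-BT buffer, pH 7.5 | Times: 10–45 min incubation at room temperature | Detection: Fluorescence polarization | Replication: Duplicates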
An asterisk follows results filed as active; / = not tested or not shown; & = joins results of further samples. This is a subset, so the mix of outcomes need not match the whole.

SMILES	BasE inh	LANA-nucl inh
COC(=O)c1ccc(/N=C/N(C)C)o1	3.9	/
CC(C)CN(CC(C)C)C(=O)C1CCCCC1C(=O)O (stereo not given)	-1.9	1.86
O=C(CSc1nnc2n1CCCCC2)N(c1ccccc1)C1CCCCC1	4.0	/
CCOC(=O)C(C)n1nc(C)c2c(C)n(-c3ccccc3)nc2c1=O (stereo not given)	-1.8	-0.289
CCC(C)n1c(SCC(=O)NC2CCS(=O)(=O)C2)nc2ccccc2c1=O (stereo not given)	-1.6	/
O=C(Nc1cccnc1)c1cccc(C(F)(F)F)c1	1.4	-0.806
CC1CN(S(=O)(=O)c2cccc(C(=O)NCCO)c2)CC(C)O1 (stereo not given)	1.6	/
O=C1c2ccccc2C(=O)N1CC#Cc1ccccc1	5.4	-0.531
CCn1cnc2c(=O)oc3ccccc3c21	2.1	-0.256
CC(=O)NCc1cn2ccsc2n1	1.9	/
O=C(c1ccc(CN2CCOCC2)o1)C(F)(F)F	3.1	-0.023
Cc1cc(C(C)(C)C)cc(C)c1CC1=NCCN1	-1.4&-1.4	-0.448&1.13&0.558
Cc1cccc(Nc2nc3ccccc3c3nncn23)c1	2.3	-0.701
COc1ccc(-c2nnn(CN3CCCC3c3cccs3)n2)cc1OC (stereo not given)	0.5	/
COCC(=O)N1CCCc2ccccc21	3.7	0.391
CCOC(=O)N1CCC(NC(=O)/C=C/C(=O)O)CC1	-2.0	2.88
CSc1nc2n(n1)C(C(C)C)C(C(=O)Nc1ccc(Cl)cc1)=C(C)N2 (stereo not given)	-1.8	-0.837
O=C(Cc1ccccc1)Nc1nnc(-c2ccco2)o1	-0.5	0.469
Brc1ccc(OCCn2cnc3ccccc32)cc1	38.5*	0.37
Cc1csc(NC(=O)CSc2nnc(CCNC(=O)c3ccc(Cl)c(Cl)c3)n2C)n1	-0.1	-1.75
CCN(CC)c1ncnc2c1cnn2-c1ccccc1	/	1.02
CCOC(=O)/C(C#N)=C\c1ccc2c(c1)OCO2	-2.3	0.254
COc1cc2c(cc1OC)C1(NCC2)C(=O)Nc2ccccc21 (stereo not given)	1.8	/
CCOC(=O)Nc1ccc2c(c1)N(C(=O)CCN1CCOCC1)c1ccccc1CC2	1.0	-0.079
COCCn1c(SCC(=O)c2c[nH]c3ccccc23)nc2ccccc2c1=O	0.3	/

Reprinted at random: 2 compounds from above.
SMILES	BasE inh	LANA-nucl inh
CCOC(=O)C(C)n1nc(C)c2c(C)n(-c3ccccc3)nc2c1=O (stereo not given)	-1.8	-0.289
Cc1csc(NC(=O)CSc2nnc(CCNC(=O)c3ccc(Cl)c(Cl)c3)n2C)n1	-0.1	-1.75

(next part)
SMILES	BasE inh	LANA-nucl inh
N#CC(c1ccc2c(c1)OCO2)N(Cc1ccccc1)C(=O)c1sc2ccccc2c1Cl (stereo not given)	2.5	/
COc1ccccc1/C=N\NC(=O)c1ccccn1	-1.9	-0.292
CCN1C(=O)C(C)S/C1=N\S(=O)(=O)c1ccc(F)cc1 (stereo not given)	0.5	/
O=C(Nc1nc2c(s1)COc1ccccc1-2)c1ccc2ncsc2c1	0.1	-0.493
C/[N+]([O-])=C\C1C(=O)CC(C)(C)CC1=O	/	-0.619
COC(=O)Cc1cc(=O)n2[nH]cnc2n1	2.9	-1.02
CCS(=O)(=O)c1ccc2oc(C)nc2c1	-1.6	/
CCCCC(C(=O)N1CCCCC1)N1C(=O)c2ccccc2C1=O (stereo not given)	1.6	/
O=C(N1CCN2CCCC2C1)C(F)(F)C(F)(F)C(F)(F)C(F)(F)F (stereo not given)	3.8	-0.479
Clc1ccc(CSCc2ccc(-c3csnn3)cc2)cc1	1.5	/
O=C(CCCN1C(=O)/C(=C\c2cccs2)SC1=S)Nc1ccc(O)cc1	2.6	/
COc1ccc(Nc2[nH]nc(NC(=O)CC3CC4CCC3C4)c2C#N)cc1 (stereo not given)	0.7	/
Cc1ccccc1NC(=O)Nc1c(C)n(-c2ccccc2)c(=O)n1C	2.1	-1.57
CCOC(=O)c1ccc2c(c1)c(C)c(C)n2C	-3.4	0.534
CC(C)=C1C(=O)Nc2ccc(S(=O)(=O)N3CCc4ccccc43)cc21	-5.2	/
CCN1CSC(=S)N(CC)C1	2.3	/
COC(=O)Cn1c(CCS(=O)(=O)c2ccc(C)cc2)nc2ccccc21	-1.5	0.635
Cc1nnc(SCC(=O)Nc2ccccc2S(=O)(=O)N(C)C2CCCCC2)n1-c1ccccc1	1.6	/
CCS(=O)c1ccccc1C(=O)OCC(=O)NCc1ccc(Cl)cc1 (stereo not given)	-2.1	/
Cc1cccc(-c2nc(C#N)c(NCc3ccccc3)o2)c1	-4.8	2.24
Cc1c(N/C=C/C(=O)c2cccs2)c(=O)n(-c2ccccc2)n1C	2.3	0.763
CCCCCc1ccc(C(=O)CCN(C)C)cc1	0.1	2.4
O=S(=O)(NCCc1ccccn1)c1cc(Cl)cc(Cl)c1O	5.0	/
COc1ccc(-c2cnc[nH]2)cc1	/	2.89
CCOC(=O)C(C)n1nc(CC)n2c(cc3occc32)c1=O (stereo not given)	-1.4	-0.891

An excerpt from above in order of length of the SMILES, largest number first:
SMILES	BasE inh	LANA-nucl inh
COC(=O)Cn1c(CCS(=O)(=O)c2ccc(C)cc2)nc2ccccc21	-1.5	0.635
COC(=O)Cc1cc(=O)n2[nH]cnc2n1	2.9	-1.02
CC(=O)NCc1cn2ccsc2n1	1.9	/
CCN1CSC(=S)N(CC)C1	2.3	/

3 of the compounds above, as labelled records:
O=S(=O)(NCCc1ccccn1)c1cc(Cl)cc(Cl)c1O
  BasE inh: 5.0; LANA-nucl inh: /
CCCCC(C(=O)N1CCCCC1)N1C(=O)c2ccccc2C1=O (stereo not given)
  BasE inh: 1.6; LANA-nucl inh: /
CCN1CSC(=S)N(CC)C1
  BasE inh: 2.3; LANA-nucl inh: /

Later entries
SMILES	BasE inh	LANA-nucl inh
CC(C)(C)C1(C)OC(=O)C(=Cc2ccccc2Cl)C(=O)O1 (stereo not given)	1.2	/
COC(=O)Oc1c(Br)c(=O)oc2ccccc12	1.5	0.322
CCCOc1ccc(C(=O)CCC(=O)O)cc1OCCC	-0.8	/
CCOC(=O)/C(C#N)=C/Nc1sccc1C#N	-9.2	/
CCN(CC)C(=O)Cn1cnc2ccccc2c1=O	-0.7	-0.954
CCCNC(=O)CC1C(=O)N(Cc2ccccc2)C(C)c2nc3ccccc3n21 (stereo not given)	0.4	0.142
Cc1cccc(N2CCN(Cc3csc(C)c3C)CC2C)c1 (stereo not given)	2.0	0.014
Cc1ccc(S(=O)(=O)n2c(CN3CCCC(C)C3)nc3ccccc32)cc1 (stereo not given)	0.6	-0.0295
CCCNS(=O)(=O)c1cc2c3c(c1)c(C)cc(=O)n3CCC2	1.7	-1.38
C=CCn1c(=O)c2ccccc2n2c(SCC(=O)c3ccc[nH]3)nnc12	1.0	/
Cc1cc(CSc2nnc(-c3ccccc3)c3ccccc23)no1	-1.1	/
CCN(CC)c1ccc(C(F)(F)F)cn1	2.0	-0.842
O=C(NCc1sccc1COc1ccc(Cl)cc1)Nc1ccccc1F	0.2	/
Cc1cccc(C)c1-n1c(-c2cccc(S(=O)(=O)N(C)C)c2)nn(CN2CCOCC2)c1=S	-0.8	/
CCOC(=O)C1=C(C)N(C)C(=S)N(C)C1c1ccccc1C(F)(F)F (stereo not given)	-1.8	/
Cc1ccccc1-c1nc(C2CCCCC2)no1	5.3	-0.488
Cc1ccc(C(=O)Nc2cccc(O)c2)cc1	-2.7	-0.15
CC(C)CC(NC(=O)C(COC(C)(C)C)NC(=O)C(Cc1ccc(O)cc1)NC(=O)C(CO)NC(=O)C(Cc1c[nH]c2ccccc12)NC(=O)C(Cc1cnc[nH]1)NC(=O)C1CCC(=O)N1)C(=O)N[C@@H](CCCN=C(N)N)C(=O)N1CCCC1C(=O)NNC(N)=O (stereo not given in full)	/	-0.06
CC1CCN(Cn2nc(-c3ccc4c(c3)OCO4)oc2=S)CC1	2.1	/
N#C/C(=C\c1cn(-c2ccccc2)nc1-c1ccc2c(c1)OCCO2)C(=O)Nc1nccs1	-0.5	/
CS(=O)(=O)c1ccc(C(=O)Nc2nccs2)cc1	-0.3	-0.26
CN1CCC(=NNC(=O)CSCc2ccccc2)CC1	3.8	-0.877
Cn1c(C(C#N)(CC(=O)N2CCCC2)CC(=O)N2CCCC2)nc2ccccc21	1.0	/
Cc1ncc(CO)c2cc(C(N)=S)c(=Nc3ccc(NC(=O)c4ccco4)cc3)oc12	-0.9	1.47
Cc1nc(-n2cccc2)sc1C(=O)NCc1ccc(F)cc1	1.7	0.303
Next compounds follow.
SMILES	BasE inh	LANA-nucl inh
O=C(COC(=O)c1cccnc1Nc1cccc(C(F)(F)F)c1)NC1CCS(=O)(=O)C1 (stereo not given)	1.1	/
CCn1c(=NC(=O)c2ccc(N(C)C)cc2)sc2cc(C)ccc21	-2.0	2.17
CSc1ncccc1C(=O)Nc1ccccc1N1CCOCC1	-2.8	/
N/C(=N\OC(=O)c1csnn1)c1ccc(-c2csnn2)cc1	-2.1	-0.099
CCOC(=O)Nc1sccc1C(N)=O	-3.2	0.948
O=C1c2cccc3cccc(c23)N1S(=O)(=O)c1ccc(Br)cc1	3.9	/
CCCc1nc2sc3c(c2c(=O)n1N)CCCC3	0.5	1.16
O=C(N/N=C/c1cccc(O)c1)c1ccc(-n2cnnn2)cc1	-2.1	/
N[C@@H](CC(=O)N1CCn2c(nnc2C(F)(F)F)C1)Cc1cc(F)c(F)cc1F	/	-0.661
CC(=O)NCCOc1cccc2ccccc12	2.1	-0.466
CSc1sc(C(=O)O)c2c1S(=O)(=O)N(C)c1ccccc1-2	0.7	/
C=C/C(=C\C=C/C)N1C(=O)SC(Nc2ccc(C(=O)O)cc2)C1=O (stereo not given)	1.6	/
Cc1cc(C)c2c(C)cc(=O)n(C)c2n1	-0.4	/
CCN(CC)/C(C)=N/C(=O)Nc1ccccc1	-2.7	0.885
O=Cc1c(O)c2ccccc2c2ccccc12	1.0	0.616
O=C(NCCO)NC12CC3CC(CC(C3)C1)C2	-1.1	2.06
Cc1c(C(=O)NCCc2ccccc2)oc2ccc(S(=O)(=O)N3CCCC3)cc12	-0.4	0.247
CN1N=C(c2ccc3ccccc3c2)CC1c1ccc(F)cc1 (stereo not given)	2.8	/
CCN(CC)CCOc1ccc(/C(=C(/Cl)c2ccccc2)c2ccccc2)cc1	-1.0	0.446&-0.0775
Cc1cc(OC(C)C(=O)Nc2ncn[nH]2)ccc1Cl (stereo not given)	3.1	-0.68
O=C1NNC(c2ccccc2)=N/C1=C\c1ccco1	4.8	0.124
CCOC(=O)C[n+]1ccccc1C	-0.4	/
COc1ccccc1-n1cnnc1SC(C)C(=O)NCCC1=CCCCC1 (stereo not given)	-1.6	/
C(=C\c1ccccc1)/CNCCN1CCOCC1	-0.4	0.0935
N#Cc1cc(C(=O)c2ccccc2O)cn2c(=O)c3ccccc3nc12	14.9	/

Structures shown so far that have a COOH group:
SMILES	BasE inh	LANA-nucl inh
CC(C)CN(CC(C)C)C(=O)C1CCCCC1C(=O)O (stereo not given)	-1.9	1.86
CCOC(=O)N1CCC(NC(=O)/C=C/C(=O)O)CC1	-2.0	2.88
CCCOc1ccc(C(=O)CCC(=O)O)cc1OCCC	-0.8	/
CSc1sc(C(=O)O)c2c1S(=O)(=O)N(C)c1ccccc1-2	0.7	/
C=C/C(=C\C=C/C)N1C(=O)SC(Nc2ccc(C(=O)O)cc2)C1=O (stereo not given)	1.6	/

Following part
SMILES	BasE inh	LANA-nucl inh
Clc1ccc(C2N(Cc3ccccc3)CCC3CCCCN32)cc1 (stereo not given)	/	0.67
O=C1c2ccccc2C(=O)N1CC#CCN1CCN(CC#CCN2C(=O)c3ccccc3C2=O)CC1	1.2	0.184
COCCN(Cc1ccccc1)S(=O)(=O)c1ccccc1OC	3.0	/
CC1Cc2ccccc2N1S(=O)(=O)c1cccc(C(=O)C(C#N)c2ccccn2)c1 (stereo not given)	-8.2	/
Cc1onc(-c2ccccc2Cl)c1-c1nc2ccc(I)cc2c(=O)o1	0.0	/
CCN=PN1CCN(P(=NCC)(N(CC)CC)N(CC)CC)CC1 (stereo not given)	-2.4	/
CCc1ccc(NC(=O)CN2C(=O)c3ccccc3S2(=O)=O)cc1	2.2	0.835
CC(C)OC(=O)CSc1nc2ccccc2[nH]1	3.3	/
Cc1cc(C)c2c(c1)c1n[nH]c(=S)nc1n2C	-1.7	-0.174
CC(=O)Nc1ncc2c(n1)CC(c1ccc(C)cc1)CC2=O (stereo not given)	-1.7	2.17
O=S(=O)(c1ccc(-c2ccccn2)s1)N1CCOCC1	-1.2	-0.353
O=c1cc(/C=C/c2ccccc2)oc2ccccc12	0.1	/
S=C(NC1CCCCC1)Sc1ccc(Cl)cc1	0.3	/
CN(N)c1nc(N2CCCC2)nc(N2CCCC2)n1	1.2	-0.0555
N#CC(C#N)=C1C=C2C=C(N3CCc4ccccc4C3)CCC2CC1 (stereo not given)	0.9	/
Cc1ccc(S(=O)(=O)CNC=O)cc1	2.4	-0.0285
O=C(CSc1ccccc1)NCC1CCCO1 (stereo not given)	0.2	/
CC(CNC1CCCCC1)OC(=O)c1ccccc1 (stereo not given)	-2.3	-0.63
COC(=O)c1ccc(COC(=O)c2cccc(S(=O)(=O)N3CCc4ccccc43)c2)o1	-1.4	/
O=C(CSc1nc2ccccc2o1)c1ccc2c(c1)OCCO2	9.8	0.388
Cc1ccc(OCc2nc(SCC(=O)NC(=O)NC3CCCC3)n[nH]2)cc1	1.1	/
CC(=O)N1CCN(CCN2C(C)=CC(=C(C#N)C#N)C=C2C)CC1	0.0	/
O=C(O)/C=C/c1ccc(-c2ccccc2)o1	-1.1	-0.038

From PubChem BioAssay
